Menin-MLL FL inh: qHTS Assay for Inhibitors Targeting the Menin-MLL Interaction in MLL Related Leukemias: Competition With Fluorescein Labeled MLL-derived Peptide; Fluorescence polarization, fluorescein-MLL peptide displacement from menin; FP activity change, % at 61.4 µM; 290,000 tested, under 10 active; AID 1766, 2009; inconclusive = falling polarisation curve, or a change in total fluorescence; inactive = total fluorescence flat and polarisation flat or rising; no compound was filed as active; the % refers to the polarisation; negative = inhibition;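 further: % of control where 0% means no effect; inhibitors lower the polarisation; unlabelled MLL peptide was the positive control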
D2 potentiator: Beta-Arrestin HTS for Positive Allosteric Modulators of the Human D2 Dopamine Receptor: Potentiators | potentiation, % (concentration not given with the values) | DiscoveRx D2 beta-arrestin cells, luminescence, 90 min; 100% = 57 uM dopamine signal | D(2) dopamine receptor (Homo sapiens), P14416 | AID 624464, 2012 | 360,000 compounds, 0.23% hits; active = potentiation of 50% or more; inconclusive = 30% to 50%; inactive = 30% or less;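 further: tested on top of an EC20 dose of dopamine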
Target sequence (P14416 whole entry, looked up): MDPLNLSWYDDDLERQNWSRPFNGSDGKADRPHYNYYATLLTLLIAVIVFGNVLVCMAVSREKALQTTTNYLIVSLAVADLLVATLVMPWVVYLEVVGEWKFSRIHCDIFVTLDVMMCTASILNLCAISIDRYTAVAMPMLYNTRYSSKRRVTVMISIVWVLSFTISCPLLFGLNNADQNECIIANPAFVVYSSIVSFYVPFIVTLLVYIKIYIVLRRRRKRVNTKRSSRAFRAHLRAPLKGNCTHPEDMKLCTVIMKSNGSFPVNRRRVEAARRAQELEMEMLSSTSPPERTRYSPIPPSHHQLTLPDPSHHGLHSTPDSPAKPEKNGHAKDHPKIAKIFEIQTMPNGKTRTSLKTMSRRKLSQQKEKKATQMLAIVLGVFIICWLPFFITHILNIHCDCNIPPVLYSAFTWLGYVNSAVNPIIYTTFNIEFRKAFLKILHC
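D2 cells co-treated with compound plus 50 nM dopamine (EC20) for 90 min at 37 deg C to detect potentiation. Beta-arrestin recruitment was read as enzyme-fragment luminescence after 1 h at ambient temperature. Full response was set by 57 uM dopamine.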
TRPV1 PAM: HTS Assay for Compounds that Act as Potentiators of the Vanilloid Receptor 1. TRPV1-expressing cells, Fluo-8 calcium influx, capsaicin EC20 potentiation; host cell line not named in the record; control for the full effect not named in the record. Transient receptor potential cation channel subfamily V member 1 (Homo sapiens), Q8NER1. potentiation, % at 8.33 µM. AID 540277, 2011. 320,000 compounds, 0.02% hits; active means potentiation above 80%; inconclusive means 30% to 80%; inactive means below 30%; further: 0% is about no effect
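Fluo-8 calcium influx in TRPV1-expressing cells, kinetic read (ex 480/em 520 nm). Compound added and read 3 min for agonist activity, followed by capsaicin at EC20 final and 2 min further read for enhancement.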
gsp ag: qHTS for Agonist of gsp, the Etiologic Mutation Responsible for Fibrous Dysplasia/McCune-Albright Syndrome: qHTS | AID 624287, 2012 | Potency, µM (doses to about 76.9 µM), for inactives: at the highest dose activation (cAMP increase), most hits filed as activators | gsp mutant cells, cAMP HTRF, 30 min; control for the full effect not named in the record | 340,000 compounds, 0.13% hits; active = well fitted activation curve with a large enough effect; inconclusive = small, poorly fitted or top-dose-only effect, or another doubt; inactive = no such curve, though single readings can be large or run the other way; cell line not stated here;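 further: phosphodiesterase inhibitor Ro 20-1724 added with compounds to block cAMP breakdown; potency means the concentration at half of the fitted maximal effect; nearly all actives have a fitted effect of over 60% in size; about a fifth of the inactives were tested at one dose only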
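Cells in DMEM/10% FBS with G418 were pretreated with compounds in DMSO plus […] (300 uM stock) for 30 min at 37C. cAMP was measured by HTRF (cAMP-d2 plus anti-cAMP antibody-K) after 30 min at room temperature.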
ClpP mod: qHTS Assay for Activators of ClpP; purified B. subtilis ClpP, FRET peptide cleavage, 20 min; AID 651965, 2013; 340,000 compounds, 1.9% hits; ATP-dependent Clp protease proteolytic subunit (Bacillus subtilis (strain 168)), P80244; Potency, µM (titrated, usually from 57.5 µM), without a hit: at the top dose activity change, negative = active; active = well fitted falling curve with a large enough effect; inconclusive = small, poorly fitted or top-dose-only effect; inactive = no such curve, though single readings can be large or run the other way; further: potency means the concentration at half of the fitted maximal effect; the source files actives as falling curves though it sought activators and does not explain the sign; nearly all actives have a fitted effect of over 65% in size; many hits overshoot -100%
Target sequence (P80244 whole entry, looked up): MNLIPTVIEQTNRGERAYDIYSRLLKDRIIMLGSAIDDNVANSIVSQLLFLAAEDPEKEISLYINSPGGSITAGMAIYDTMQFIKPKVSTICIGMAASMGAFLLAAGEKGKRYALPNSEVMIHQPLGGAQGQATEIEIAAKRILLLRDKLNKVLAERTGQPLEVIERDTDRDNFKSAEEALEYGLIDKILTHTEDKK
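Buffer: 100 mM Tris/HCl pH8, 100 mM KCl, 0.05% low protease BSA, 2.5% glycerol, 0.01% Tween-20. ClpP 10 microg/mL final; 20 min RT; delta FRET normalized to ADEP and DMSO controls.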
Sfp inh: qHTS Assay for Inhibitors of Bacillus subtilis Sfp phosphopantetheinyl transferase (PPTase) | 4'-phosphopantetheinyl transferase ffp (Bacillus subtilis), Q9F4F7 | Biochemical Sfp PPTase activity, qHTS | Potency, µM, for the others: max response, negative = inhibition, most hits filed as inhibitors | 310,000 compounds, 3.5% hits; active means well fitted inhibition curve with a large enough effect; inconclusive means small, poorly fitted or top-dose-only effect, or another doubt; inactive means no such curve, though single readings can be large or run the other way;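 further: the enzyme is Sfp with the accession as filed and its product quenches rhodamine fluorescence; potency means the concentration at half of the fitted maximal effect; 0% = enzyme reaction without inhibitor and -100% = no enzyme wells; top concentration of the series not given in the record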
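Fluorescence-quenching assay with 15 nM Sfp, 5 uM rhodamine-CoA and 12.5 uM BHQ-2-labelled ybbR peptide in pH 7.6 Hepes/MgCl2 buffer. Enzyme was pre-incubated with compound for 15 min at room temperature. Rate was taken from the 30-min fluorescence change (525/598 nm).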
gsp antagonist: qHTS for Antagonists of gsp, the Etiologic Mutation Responsible for Fibrous Dysplasia/McCune-Albright Syndrome: qHTS; gsp-mutant cells, cAMP HTRF, 30 min; control for the full effect not named in the record; Potency, µM (top dose mostly 76.9 µM), for inactives: at the top dose activity change, negative = inhibition, actives largely listed as inhibitors; 340,000 compounds, 0.4% hits; AID 624288, 2012; active = falling curve of any shape with a large fitted effect; inconclusive = falling curve, mostly with a smaller effect; inactive = flat or rising curve; cell line not stated here;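 further: intracellular cAMP measured with PDE inhibitor Ro 20-1724 present during compound exposure; potency means the concentration at half of the fitted maximal effect; on the % scale 0 is the no-effect control and ±100 the full control effect; nearly all actives have a fitted effect of over 65% in size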
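Cells, 2000/well, grown 16–24 h in DMEM 10% FBS with 0.5 mg/ml G418, then compounds plus […] (300 uM addition stock), 30 min at 37C. cAMP read by HTRF (cAMP-d2 and anti-cAMP antibody-K in lysis buffer) after 30 min RT.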
* hit, by the source's call; ? = inconclusive; . = no result given; & = joins results of further samples; [ ] = dose if it differs, or a comment. This is a random part of the collection; any-hit rate near 5.1%.

SMILES	Menin-MLL FL inh	D2 potentiator	TRPV1 PAM	gsp ag	ClpP mod	Sfp inh	gsp antagonist
COc1ccc(N2C(=NC(=O)CC3CCCCC3)SC3CS(=O)(=O)CC32)cc1 (stereo not given)	-3.3	-3	4	41%	-1.1%	9%	11%
Cc1ccc(CONC(=O)c2ccccc2)cc1	-2.2	-2	-27	-11%[15.4 µM]	.	4%	1%
O=C(O)Cn1c(P(=O)(O)c2ccccc2)nc2ccccc21	4.1	-13	9	18%	-3.2%	-28%	16%
Clc1ccc2[nH]c3c(NCCCN4CCOCC4)ncnc3c2c1	1.5	-11	8	-4%	20µM*	-8%	16%
N#CCC(=O)N/N=C/c1cc([N+](=O)[O-])ccc1N1CCCC1	3.5	-19	1	5%[15.4 µM]	.	9%	-69%
COc1ccc(/C=C2\Cc3ccccc3C2=O)cc1OC	-3.3	-27	-25	19%	-4.4%	-13%	-4%
CCOC(=O)C1CCN(C(=O)Cn2cnc3sc(C)c(S(=O)(=O)N4CCC(C)CC4)c3c2=O)CC1	-0.7	-4	10	4%[15.4 µM]	.	7%	-6%
CC(=O)c1cccc(NC(=O)CN2CCN(Cc3ccccc3)CC2)c1	3.2	-35	-3	-2%[15.4 µM]	-1.1%	56µM*	2%
Cc1cc(Cl)cc(C)c1OCCCCCn1ccnc1	-0.9	-3	0	-40%[inhibitor]	0.2%	10%	2%
COC(=O)C1=C(N)Oc2cc(C)n(Cc3ccncc3)c(=O)c2C1c1cccnc1 (stereo not given)	.	-2	.	-28%	-0.7%	.	-5%
COc1cc(O)c(C(CC(=O)N2CCOCC2)c2ccc3c(c2)OCO3)c(OC)c1 (stereo not given)	1.3&4.0	-7	-30	.	-3.0%	6%&6%	4%
O=C(CN1CCC(NC(=O)c2ccco2)CC1)Nc1ccccc1C(F)(F)F	2.0	-6	5	-23%	.	8%	-15%
CC(/C=C/c1ccccc1)=N\NC(=O)CCc1ccccc1	1.6	-9	-20	-6%	0.6%	10%	-4%
O=C(Nc1ccc(S(=O)(=O)N2CCOCC2)cc1)C1CCN(S(=O)(=O)c2ccc(F)cc2)CC1	.	-2	-13	0%[15.4 µM]	-0.4%	.	-4%
S=c1[nH]nc(-c2ccco2)n1C1CCCCC1	-0.9	-5	-16	0%	-5.6%	-20%	1%
COC1=C/C(=C/c2c(O)c(C#N)c3ccccn23)C=CC1=O	?	-7	24	7%	-19%	?	-11%
COc1ccc(CNC(=O)C/C(C)=N/NC(=O)c2ccc([N+](=O)[O-])cc2Cl)cc1	1.1	11	1	-5%[15.4 µM]	.	3%	4%
O=C(COc1ccc(F)cc1)c1c(O)cc(O)cc1O	1.8	-12	8	3%	0.1%	5%	9%
CCN(CC(=O)Nc1ccc(NC(C)=O)cc1)C(=O)COc1ccccc1-c1ccccc1	.	-22	-14	?	1.3%	.	-12%
O=S(=O)(Cc1ccccc1)Nn1cnnc1	5.5	-4	-8	5%	2.0%	-1%	7%
CCCOc1ccc(CSC2=NCCN2)cc1[N+](=O)[O-]	1.6	-5	1	-32%[inhibitor]	1.3%	18%	11%
Cc1ccc(C(=O)COC(=O)c2ccc3c(c2)C(=O)N(c2cccc4ncccc24)C3=O)cc1C	4.1	0	13	-1%	-0.1%	?	3%
CCOC(=O)CNc1ncc(C(F)(F)F)cc1Cl	3.8	-9	3	-4%[15.4 µM]	.	17%	10%
O=C(Nc1ccccc1F)c1oc2ccccc2c1NC(=O)C1CC1	.	-6	-21	41%	3.6%	8%	2%
COc1ccc(C(CNC(=O)c2cccc(S(=O)(=O)Nc3ccccc3Cl)c2)N2CCOCC2)cc1 (stereo not given)	.	-8	21	-2%[15.4 µM]	.	.	-23%
Cc1ccccc1-c1n[nH]c(=S)n1Cc1ccccc1	0.3	-7	-4	-5%[15.4 µM]	.	-2%	6%
COc1cccc(OC)c1C(=O)N1CCN(Cc2cccnc2)CC1	-2.2	1	1	-2%	.	?	4%
O=C(Cn1cnc2sc3c(c2c1=O)CCCC3)NCC(=O)Nc1ccccc1F	.	1	2	?	0.4%	-19%	-2%
OC1CN=C2Sc3ccccc3N2C1 (stereo not given)	-0.6	2	-3	?	-0.1%	7%	9%
CCc1ccc(NC(=O)c2cccnc2)cc1	2.3	5	-14	-10%	2.2%	11%	3%
COC(=O)c1cccc(NC(=O)c2nn(C)c(=O)c3ccccc23)c1	0.7	-4	5	21%	-0.5%	10%	-18%
Cc1cccc(OCC(=O)Nc2ccc3c(c2)nc(CCN2CCCCC2)n3C)c1	3.6	-23	-1	-18%	-5.5%	18%	6%
O=C(O)c1cccc(CSc2nc(-c3ccccc3)cc(C(F)(F)F)n2)c1	5.5	-7	25	-20%[15.4 µM]	0.3%	-16%	-9%
CC(=O)Nc1ccc(S(=O)(=O)NCc2ccc(C(=O)N3CCOCC3)cc2)cc1	.	-7	5	6%	0.0%	11%	5%
O=S(=O)(/N=C/N1CCOCC1)c1ccc(Cl)cc1	?	-2	-3	-7%	-1.6%	8%	19%
CC(=O)Nc1ccc(S(=O)(=O)N(C)CC(=O)OCC(=O)N(CC(C)C)C2CCS(=O)(=O)C2)cc1 (stereo not given)	.	-17	5	?	-4.1%	.	11%
COc1ccc(C(=O)N/C(=C\c2cccc3ccccc23)C(=O)N2CCN(C)CC2)cc1OC	-1.4	5	11	?	.	-1%	-2%
CCCCCCNC(=O)N[C@@H](C(=O)NCCC[C@H]1CN2C(=NC[C@@H]2Cc2ccccc2)N1CCc1cccc(OC)c1)C(C)C	2.7	-35	-19	0%	0.3%	3.5µM*	4%
CCOc1ccccc1NC(=O)Nn1cnnc1	.	-2	0	?	0.1%	6%	10%
CCN1CCN(CC(=O)Nc2cc(C(F)(F)F)ccc2OCCOC)CC1	1.0	-12	-10	11%	0.2%	79µM*	-7%
CC(=O)c1sc(-c2ccccn2)nc1C	1.9	.	-1	.	.	-4%	.
Cc1ccc(S(=O)(=O)N(C)C)cc1NC(=O)c1ccncc1	-4.4	-4	3	-1%	-1.9%	23%	6%
CC[C@@H]1C(c2ccccc2)=NN(c2ccc(Br)cc2)[C@H]1C(=O)N1CCOC1=O	-0.1	.	.	.	5.3%	12%	-22%
Cc1nn(CC(=O)NC2CCS(=O)(=O)C2)c(C)c1S(=O)(=O)N(C)C (stereo not given)	.	-2	5	2%	-0.2%	.	9%
Cc1[nH]c(=O)n(C(C)C)c(=O)c1Br	.	-7	.	-1%	.	.	8%
COc1ccc(Cl)cc1NC(=O)Cn1cccc1	-2.3	-4	-8	-5%	-1.7%	-6%	-1%
c1ccc(CSc2ncccn2)cc1	2.2	-15	13	13%	-2.1%	-18%	2%
Cc1sc2ncnc(N3CCCC(C)C3)c2c1C (stereo not given)	-3.0	-1	-6	27%	.	13%	-9%
CC(C(=O)O)n1nc(-c2ccccc2)c2ccccc21 (stereo not given)	7.1	-11	-7	23%	4.3%	22%	-2%
Cc1onc(-c2ccccc2Cl)c1C(=O)O/N=C(\N)c1ccc([N+](=O)[O-])o1	0.9	11	-6	0%	2.7%	2%	-25%

(continued)
SMILES	Menin-MLL FL inh	D2 potentiator	TRPV1 PAM	gsp ag	ClpP mod	Sfp inh	gsp antagonist
COc1cccc(-c2noc(Cn3nc(C(=O)O)c4ccccc4c3=O)n2)c1	3.7	-6	-4	21%	.	2%	-6%
COc1ccc(Br)cc1CN1CCN(C(=O)c2ccc(OC)c(OC)c2)CC1	0.0	-9	13	0%	.	-26%	-2%
Nc1cc(Cl)ccc1Oc1ccccc1	-1.1	-13	4	-16%	-1.8%	18%	-5%
CCN(Cc1ccccc1)C(=O)COC(=O)Cc1c[nH]c2ccccc12	.	-4	-17	16%	-3.6%	.	-3%
CCc1nc2c(c(=O)c3ccccc3n2C)c(=O)n1-c1ccc(F)cc1	2.6	-24	4	4%	-2.4%	14%	25%
O=C(Cn1ncc(N2CCOCC2)c(Cl)c1=O)c1ccc(Cl)cc1	1.7	-5	-2	7%	1.0%	11%	3%
FC(F)(F)c1ccc(Cl)c(NC(=S)NC2CC2)c1	4.6	-27	-2	?	-1.8%	11%	11%
Cc1cc(C)nc(SCC(=O)Nc2ncc3c(n2)CCCC3=O)n1	1.7	-2	-7	-40%	-0.5%	12%	5%
CCCCC1(CCCC)NC(=S)N(Nc2ccc(C)cc2)C1=O	-2.5	3	-8	-33%	0.9%	2%	3%
COc1ccc2sc(-c3ccc(S(C)(=O)=O)cc3)c(C(=O)NCCc3c[nH]c4ccccc34)c2c1	.	4	.	.	4.3%	.	-4%
COc1ccc(CNC(=O)C/C(C)=N/NC(=O)Cc2ccc(OC)c(OC)c2)cc1	1.4	1	-2	-8%	1.4%	11%	15%
O=C(NC1CCCCC1)N1CCc2ccccc2C1	-6.2	-26	10	-24%[15.4 µM]	.	13%	-13%
Cc1cc(C(=O)NC(=S)Nc2ccccc2N2CCOCC2)ccc1[N+](=O)[O-]	3.2	-1	-5	?	-0.8%	7%	14%
COCCNC(=O)/C(C#N)=C/c1cc(C)n(C2CCCCC2)c1C	-0.7	-5	1	3%[15.4 µM]	.	?	3%
CC(C)(C)c1ccc(C(=O)Nc2ccc(C(=O)NCc3cccnc3)cc2)cc1	-3.7	-6	-19	2%[15.4 µM]	.	-21%	-7%
C=CCOc1ccc(/C(CC)=N/O)c(OC)c1	-0.6	-1	1	?	-2.0%	15%	6%
CC(=O)N1CCc2cc([N+](=O)[O-])ccc21	.	-25	.	?	-2.6%	.	6%
CCCc1cc(CNC(=O)C2CCC(=O)N(Cc3ccccc3F)C2)on1 (stereo not given)	.	-8	-11	-7%[15.4 µM]	.	19%	5%
